High-throughput results from PubChem.
VDR inhibitor = vitamin D3 receptor (human) inhibition | P11473 | VDR-SRC2-3 peptide fluorescence polarization, 2 h | hit rate 0.93% among 400,000 | Potency, µM, without a hit: max response, negative = inhibition, actives largely listed as inhibitors; active means well fitted inhibition curve with a large enough effect; inconclusive means small, poorly fitted or top-dose-only effect, or another doubt; inactive means no such curve, though single readings can be large or run the other way; further: series mostly up to about 120 µM
Target sequence (P11473 whole entry, looked up): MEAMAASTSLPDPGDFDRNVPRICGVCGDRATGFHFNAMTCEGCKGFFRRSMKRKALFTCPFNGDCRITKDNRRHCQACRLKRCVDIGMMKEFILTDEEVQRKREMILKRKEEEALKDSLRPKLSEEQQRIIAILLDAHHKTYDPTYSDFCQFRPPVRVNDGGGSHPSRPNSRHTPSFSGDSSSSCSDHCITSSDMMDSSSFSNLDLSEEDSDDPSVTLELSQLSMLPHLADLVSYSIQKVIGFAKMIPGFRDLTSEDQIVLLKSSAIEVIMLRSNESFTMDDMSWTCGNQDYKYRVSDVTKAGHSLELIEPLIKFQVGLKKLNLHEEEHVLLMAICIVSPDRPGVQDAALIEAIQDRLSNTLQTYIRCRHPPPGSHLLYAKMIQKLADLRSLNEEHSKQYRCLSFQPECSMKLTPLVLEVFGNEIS
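Two reagent solutions held at 4 deg C in the dark were dispensed, compounds pinned at 23 nl, and the mixture incubated 2 h at room temperature. Read-out: fluorescence polarization of VDR–SRC2-3 peptide binding.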
* marks the source's active call; other numbers are inactive results; ? = inconclusive; & = joins results of further samples. On the % scale 0 is the no-effect control and ±100 the full control effect; potency means the concentration at half of the fitted maximal effect. Only part of the results is shown. The share of hits here may be higher or lower than overall.

SMILES | VDR inhibitor
Cc1ccc(C(=O)NNc2cc(N3CCCC3)nc(N3CCCC3)n2)cc1 | 6.1%
C[C@H](CO)N1C[C@H](C)[C@@H](CN(C)C(=O)Nc2ccc3c(c2)OCO3)Oc2ccc(NC(=O)Nc3ccc(C(F)(F)F)cc3)cc2C1=O | -12.7%
COc1ccc(NC(=O)CCS(=O)(=O)c2nc(-c3ccc4c(c3)OCO4)cc(C(F)(F)F)n2)c(OC)c1 | ?
O=C(Cn1c(C(F)(F)F)nc2ccccc21)c1ccc(Br)cc1 | 4.9%
CCOc1cc(-c2nc(C)c(C(C)=O)n2O)ccc1OCC(=O)Nc1ccccc1 | -4.1%
Cc1ccc(-n2c(SCC(=O)NCCN3C(=O)CSC3=O)nnc2-c2cccc(C)c2)cc1 | -9.6%
CCOc1ccc(Nc2c3c(nc4ncnn24)CC(C)CC3)cc1 (stereo not drawn) | -13.5%
CCc1nn2c(=O)cc(CSCC(=O)Nc3ccccc3Cl)nc2s1 | 23.3%
O=C(Nc1cccnc1)c1cccc(S(=O)(=O)Nc2cccc(Cl)c2)c1 | 9.1%
Cc1cccc(C)c1OCc1cc(C(=O)N2CCN(Cc3nccn3C)CC2)no1 | 0.8%
CC(=O)N1N=C(c2ccc(C)c([N+](=O)[O-])c2)OC1(C)C | -8.8%
COc1ccc(Cl)cc1NC(=S)NCc1cccs1 | -7.8%
O=C1CC(c2ccc(F)cc2)Sc2nc(C34CC5CC(CC(C5)C3)C4)nn21 (stereo not drawn) | -20.8%
O=C(CCNS(=O)(=O)c1ccc(Br)s1)NCc1ccccc1Cl | 1.4%
CC(C)Oc1ccc(/C(O)=C2/C(=O)C(=O)N(CCN(C)C)C2c2cccs2)cc1 (stereo not drawn) | -7.9%
CCCCCOc1ccc(/C=N/NC(=O)c2nnn(-c3nonc3N)c2CN2CCCCCC2)cc1 | 16.0%
COc1ccc(C2CC(=O)C(C=NCCN3CCN(C(=S)Nc4ccccc4)CC3)=C(O)C2)cc1OC (stereo not drawn) | 0.7%
Cc1ccc(-c2ccc(CCC(=O)O)n2CC2CCCO2)cc1 (stereo not drawn) | -4.3%
Cc1ccc(CNC(=O)C2CCCN(C(=O)N(C)C)C2)cc1 (stereo not drawn) | 4.6%
CCCCN1C(=O)C(=O)N(CC(=O)NC2CCCc3ccccc32)C1=O (stereo not drawn) | ?
COc1cccc2cc(CC(=O)c3ccccc3)c(=O)oc12 | 4.4%
COc1ccc(CC(=O)NC2=NCCS2)cc1 | -6.8%
CCOc1ccc(NC(=O)CCCn2c(C)c3cnn(-c4ccccc4)c(=O)c3c2C)cc1 | 14.1%
COc1ccc(C[C@H]2CN3C(=NC[C@H]3Cc3ccccc3)N2CCNC(=O)c2ccc(C)c(Br)c2)cc1 | 0.8%
COc1ccccc1-c1noc(CCCC(=O)NC2CCCC2)n1 | -6.0%
COc1ccc(S(=O)(=O)N(C)C[C@H]2Oc3ccc(NC(=O)NC(C)C)cc3C(=O)N([C@H](C)CO)C[C@@H]2C)cc1 | -12.8%
CCOc1cc(S(=O)(=O)NC2CCCC2)ccc1Cl | -3.9%
COc1cc(NC(=O)CSc2nnc3n2C(C)(C)Cc2ccccc2-3)cc(OC)c1 | 8.6%
C#CC(CC)(CC)NC(=S)Nc1ccc(S(N)(=O)=O)cc1 | 8.8%
c1ccc2c(c1)OCCOCCOCCO2 | -1.2%

6 records drawn at random from the list so far, as already listed:
SMILES | VDR inhibitor
C#CC(CC)(CC)NC(=S)Nc1ccc(S(N)(=O)=O)cc1 | 8.8%
COc1cc(NC(=O)CSc2nnc3n2C(C)(C)Cc2ccccc2-3)cc(OC)c1 | 8.6%
COc1ccccc1-c1noc(CCCC(=O)NC2CCCC2)n1 | -6.0%
COc1ccc(CC(=O)NC2=NCCS2)cc1 | -6.8%
Cc1ccc(-c2ccc(CCC(=O)O)n2CC2CCCO2)cc1 (stereo not drawn) | -4.3%
c1ccc2c(c1)OCCOCCOCCO2 | -1.2%

Continued.
SMILES | VDR inhibitor
O=C(c1ccco1)N(Cc1cccs1)C1CCS(=O)(=O)C1 (stereo not drawn) | 5.4%
O=C(OCN1C(=O)c2ccccc2C1=O)C1CCCCC1 | 14.6%
COc1ccc(NC(=O)CCCC2=NS(=O)(=O)c3ccccc3N2)cc1 | 4.3%
COc1ccc(NC(=O)Nc2ccc3nccnc3c2)cc1 | 2.8%
COc1ccc(-n2ccn(CC(=O)Nc3ccc(OC)cc3OC)c(=O)c2=O)cc1 | 3.5%
Cc1cccc(C(=O)Nc2cccc(-c3cnc4ccccc4n3)c2)c1 | 7.7%
Cc1ccc(-n2ncc3c(N(C)Cc4ccccc4)ncnc32)cc1 | 7.3%
C/C(=N\NC(=O)COc1cc(C)cc(C)c1)c1cccc(NC(=O)C2CCC2)c1 | 4.9%
Cc1ccc(-c2nc3[nH]c(=O)cc(NC(=O)C(C)C)n3n2)cc1 | ?
CN(C(=O)CSc1nnnn1-c1ccc(Cl)cc1)C1CCS(=O)(=O)C1 (stereo not drawn) | -12.5%
Cc1cnc(CNc2nc(-c3cccc(NS(C)(=O)=O)c3)nc3ccccc23)cn1 | 3.1%
COc1ccc(S(=O)(=O)N(CC(=O)Nc2ccccc2Cl)Cc2ccccc2)cc1 | 8.2%
CS(=O)(=O)c1ncc(N(Cc2ccccc2)Cc2ccco2)c(C(=O)Nc2cccc(C(F)(F)F)c2)n1 | -0.2%
COc1ccc(C2=NN(S(C)(=O)=O)C(c3cccs3)C2)cc1OC (stereo not drawn) | 18.9%
CSc1sc(C(=O)NCC2CC2)cc1S(=O)(=O)C(C)C | 6.5%
CN(C)CCN(Cc1ccccc1)c1ccnc(N(C)C)c1C#N | 3.5%
CN(Cc1ccc(Cl)cc1Cl)C(=O)c1cc(=O)c2ccccc2o1 | -2.6%
O=S1(=O)NC(=NC2CCCCCC2)c2ccccc21 | 1.7%
COC(=O)N1CCC2(CC1)CN(C(=O)Nc1ccccc1)C2 | -8.8%
CCn1nc2cc(C(=O)NCCc3cccs3)ccc2c1OC | 3.6%
O=C(c1ccc(Cl)cc1)n1c(NCc2ccccc2)n[nH]c1=S | 7.1%
CN(CC(=O)Nc1ccc(S(=O)(=O)N2CCCC2)cc1)Cc1ccc(Cl)cc1 | 1.9%
CC1Cc2nc(SCC(=O)NCc3ccco3)n(Cc3ccccc3)c(=O)c2S1 (stereo not drawn) | -18.8%
O=C1c2cccc3c([N+](=O)[O-])ccc(c23)C(=O)N1c1ccccn1 | -15.2%
O=C(NCc1ccc2c(c1)OCO2)C1Cc2ccccc2CN1C(=O)c1ccco1 (stereo not drawn) | -9.1%
CCN(CC)c1ccc2c(C)c(Cl)c(=O)oc2c1 | 4.3%
O=C(CN1CCOCC1)OCCCC1CCCCC1 | 5.1%
CCCCNc1c(N)n(CCC)c(=O)[nH]c1=O | -6.8%
CCOC(=O)C1C(c2ccc3c(c2)OCO3)NC(=O)NC1(O)C(F)(F)F (stereo not drawn) | ?
CCOC(=O)c1c(NC(=O)COC(=O)c2ccc(NC(=O)CC#N)cc2)sc(C(=O)NC)c1C | 6.1%

6 entries already listed, ordered by length of the SMILES, smallest number first.
SMILES | VDR inhibitor
CCN(CC)c1ccc2c(C)c(Cl)c(=O)oc2c1 | 4.3%
CCn1nc2cc(C(=O)NCCc3cccs3)ccc2c1OC | 3.6%
CN(C)CCN(Cc1ccccc1)c1ccnc(N(C)C)c1C#N | 3.5%
COC(=O)N1CCC2(CC1)CN(C(=O)Nc1ccccc1)C2 | -8.8%
CC1Cc2nc(SCC(=O)NCc3ccco3)n(Cc3ccccc3)c(=O)c2S1 (stereo not drawn) | -18.8%
O=C1c2cccc3c([N+](=O)[O-])ccc(c23)C(=O)N1c1ccccn1 | -15.2%

(further entries)
SMILES | VDR inhibitor
CCCCC(=O)Nc1nnc(CCOC)s1 | 6.2%
Cn1c(SCC(=O)Nc2nccs2)nnc1-c1ccncc1 | 10.5%
COc1ccc(CN=C2NC(=O)CC(C(=O)Nc3ccc([N+](=O)[O-])cc3C)S2)cc1 (stereo not drawn) | 5.2%
CCCN1C(=O)/C(=C2\SC(=S)N(c3c(C)n(C)n(-c4ccccc4)c3=O)C2=O)c2ccccc21 | -5.0%
CC(=O)N1N=C(c2ccc(Cl)cc2)OC1(C)C | 7.6%
CCOc1ccc(-c2noc(CSc3nnc(Cc4ccccc4)n3-c3ccc(F)cc3)n2)cc1 | -1.0%
COc1ccc(C2C(C(C)=O)=C(O)C(=O)N2Cc2cccnc2)cc1 (stereo not drawn) | -0.5%
CCOC(=O)c1ccc(NC(=O)NCc2ccc(OC)cc2)cc1 | -6.4%
COc1ccc(/C=C2/CCc3ccccc3C2=O)cc1CN1CCOCC1 | -4.7%
CCOc1ccc(CNC(=O)CCCn2c(=O)c3cccn3c3cccnc32)cc1 | -6.7%
CC(=O)Cn1c(=O)oc2ccccc21 | -13.8%
CC(C)CN(C(=O)COc1ccc(-c2nnco2)cc1)C1CCS(=O)(=O)C1 (stereo not drawn) | -1.0%
COc1ccc(-c2cn3cccnc3n2)cc1NC(=O)CC(C)C | 1.4%
COc1ccc(C2=Nn3c(nnc3-c3ccccc3OC)SC2)cc1OC | -7.7%&-5.4%
CN(Cc1ccccc1)C(=O)c1ccc(NC(=O)Cc2ccc(NC(=O)C3CCN(C(=O)c4ccccc4)CC3)cc2)cc1 | 3.0%
O=C(N/N=C/c1ccccc1)NC1CCCCC1 | -1.7%
COc1cccc2cc(C(=O)C3=C(O)C(=O)N(c4cc(C)on4)C3c3cccs3)oc12 (stereo not drawn) | -12.5%
C[C@@]12CCc3occc3[C@H]1CC[C@@]13C[C@@H](CC[C@H]12)[C@@](O)(CO)C3 | 2.9%
CC1CN(C(=O)c2ccc(Oc3ccccc3)cc2)CC(C)O1 (stereo not drawn) | 8.2%
Cc1ccccc1C(=O)Nc1ccc(N2CCOCC2)nc1 | 5.4%
O=C1C2C(c3ccccc3)C=CC(c3ccccc3)C2C(=O)N1C1CCCCC1 (stereo not drawn) | 0.3%
Cc1cc(N)n(Cc2cccs2)n1 | -7.6%
CCCc1cc(=O)oc2c(C)c3c(cc12)CN(CCc1ccc(Cl)cc1)CO3 | 7.7%
Cc1ccc(N2C(=O)C(Cl)=C(N3CCOCC3)C2=O)cc1Cl | ?
CC(C)C[C@@H](NC(=O)[C@H]1CCCN1C(=O)Cc1ccccc1)C(N)=O | 15.4%
COc1cc(NC(=O)c2cccs2)c(C(=O)OCC(=O)NC(=O)NC(C)(C)C)cc1OC | 3.6%
O=P(O)(O)O[C@@H]1[C@H](O)[C@H](O)[C@@H](OP(=O)(O)O)[C@H](OP(=O)(O)O)[C@H]1O | 0.6%
CN(C)c1cc(-c2cccc(NS(C)(=O)=O)c2)ncn1 | ?
O=C(Cn1cnc2ccccc2c1=O)c1ccccc1 | 2.9%
FC(F)(F)c1cccc(OCc2nnc3n2CCC3)c1 | -2.4%
N#CC[C@H](Cc1ccccc1)N1CC[C@@H](NC(=O)OCc2ccccc2)CCC1=O | -10.0%
COC(=O)c1ccc(-n2cncn2)c(F)c1 | 7.0%
Cc1nc2cccc(C(=O)NC3CCCCC3)c2o1 | 10.4%
CCn1cc(C(=O)NCc2cccs2)c(=O)c2ccc(C)nc21 | -6.6%
CCCCSCc1ccc(C(=O)O)o1 | -4.0%
COCCNC(=O)C1Nc2ccc(OC(F)(F)F)cc2C2C=CCC12 (stereo not drawn) | -6.6%
COc1cc(-c2nn3c(-c4cccc(C)c4)nnc3s2)cc(OC)c1OC | 0.2%
CC(=O)NC(=O)COC(=O)c1ccc2ncsc2c1 | -9.2%
O=C(Cc1ccccc1)NNC1CC(=O)N(c2ccc(Br)cc2)C1=O (stereo not drawn) | -4.4%
CS/C(Nc1cc(Cl)ccc1Cl)=C(/C#N)C(=O)c1ccco1 | ?
O=C(CSc1nc2ccccc2s1)N1c2ccccc2Sc2ccccc21 | 1.4%
COc1cc(C(=O)NCC(c2ccco2)N2CCc3ccccc32)cc(OC)c1OC (stereo not drawn) | 10.2%
Cc1nnc2nc(-c3ccccc3)nc(-c3ccccc3)n12 | -13.3%
COc1cc2c(cc1OC)C(COc1ccc3c(C)cc(=O)oc3c1)N(C(=O)c1ccco1)CC2 (stereo not drawn) | 12.2%
CCN(CC)CCSc1nc2ccccc2c(=S)n1-c1ccccc1 | 1.3%
CCOCCCNC(=O)C(c1ccc(OC)cc1)N(Cc1cccs1)C(=O)c1ccccc1O (stereo not drawn) | 4.3%&0.4%
O=C(Cn1cnc2cc(Cl)ccc2c1=O)Nc1ccc2c(c1)OCO2 | 12.5%
CSc1nn(Cc2ccc(F)cc2)c(N(C(C)=O)C(C)=O)c1S(=O)(=O)c1ccccc1 | ?
Cc1cc(Cl)ccc1OCC(=O)Nc1ccccc1C(=O)N1CCOCC1 | 13.6%
CCOc1ccc(Cl)cc1/C=N/NC(=O)CNC(=O)c1ccccc1 | -11.2%
O=C1NC(=S)N/C1=C\c1ccc(N2CCOCC2)cc1 | ?
CCN(c1ccccc1)S(=O)(=O)c1ccc(Cl)c(NC(=O)CSc2nnc(C)s2)c1 | -8.9%
COC(=O)CCC(=O)OC1(C)C(=O)C=C2C=C(c3ccc(C#N)cc3)OC=C2C1=O (stereo not drawn) | ?
COc1cccc(-c2noc(-c3cccs3)n2)c1 | -2.0%
Cc1ccc(NC(=O)COC(=O)Cc2c[nH]c3ccccc23)cc1F | 16.7%
CS(=O)(=O)Nc1ccc2c(c1)C(=O)OC2 | -5.4%
Cc1cc(C)nc(NC(=O)c2ccc(C)o2)n1 | 5.4%
c1cncc(-c2ccnc3ncnn23)c1 | -3.2%
CN1N/C(=C\c2ccccc2)N=C2C(=O)N(C)C(=O)N=C21 | 50.1µM*
CCS(=O)(=O)N1CCc2cc(C(=O)Nc3cc([N+](=O)[O-])ccc3C)ccc21 | 0.1%
CC(C)N(Cc1nc(-c2ccccc2)no1)C(=O)C(Cl)(Cl)Cl | 10.4%
